# ALR H2O2 inh = inhibitors of human ALR sulfhydryl oxidase, primary screen, biochemical, H2O2 detection, HRP-luminol luminescence, single point. FAD-linked sulfhydryl oxidase ALR (Homo sapiens), P55789. purified ALR, DTT oxidation. inhibition, % (concentration not given with the values). hit rate 3.8% among 290,000. AID 485317, 2010;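 active = mean and each replicate at 75% or more; inconclusive = only one of the two met; inactive = neither met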;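 note: stock transfer was 7.5 nL into about 7.5 µL; 0% = neutral wells and 100% = wells with inactivated enzyme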
# Target sequence (P55789 whole entry, looked up): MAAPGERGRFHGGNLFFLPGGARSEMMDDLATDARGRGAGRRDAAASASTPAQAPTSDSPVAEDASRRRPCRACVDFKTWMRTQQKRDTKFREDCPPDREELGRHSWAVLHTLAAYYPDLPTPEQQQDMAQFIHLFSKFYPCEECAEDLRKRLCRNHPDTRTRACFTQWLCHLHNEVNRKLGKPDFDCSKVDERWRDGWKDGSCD
# MLL AF4-AF9 inh = inhibitors of AF4 peptide binding to AF9, primary screen, biochemical, AlphaScreen, biotin-AF4 peptide, FLAG-AF9, single point; inhibition, % at 10 µM; hit rate 0.47% among 350,000;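 active = every replicate reaching a set inhibition limit, whatever the replicate mean, cut at about 25% in these data; inconclusive = mean inhibition reaches that limit but some replicates miss it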;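 note: 0% = plate neutral control median and 100% = total signal loss; the record names both 10 and 1 µM as test concentration; the first replicate is given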
# Target sequence (P42568 whole entry, looked up): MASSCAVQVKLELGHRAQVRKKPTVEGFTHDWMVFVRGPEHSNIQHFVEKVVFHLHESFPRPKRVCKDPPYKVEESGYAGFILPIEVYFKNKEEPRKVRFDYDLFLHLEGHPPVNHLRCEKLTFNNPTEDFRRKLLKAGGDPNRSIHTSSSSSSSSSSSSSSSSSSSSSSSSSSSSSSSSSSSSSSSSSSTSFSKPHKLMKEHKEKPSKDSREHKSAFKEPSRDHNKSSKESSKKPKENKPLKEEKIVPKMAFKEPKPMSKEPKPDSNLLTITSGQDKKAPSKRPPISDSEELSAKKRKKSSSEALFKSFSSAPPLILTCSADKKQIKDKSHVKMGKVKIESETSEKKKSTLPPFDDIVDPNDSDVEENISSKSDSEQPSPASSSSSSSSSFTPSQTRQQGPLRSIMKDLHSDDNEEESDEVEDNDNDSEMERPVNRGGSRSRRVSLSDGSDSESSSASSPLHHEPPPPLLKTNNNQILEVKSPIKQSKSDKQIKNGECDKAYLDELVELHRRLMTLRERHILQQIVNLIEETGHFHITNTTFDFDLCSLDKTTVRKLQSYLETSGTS
# Vif TR-FRET = inhibitors of Vif binding to APOBEC3G peptide, primary screen, biochemical, TR-FRET, GST-Vif 1-94, biotin-A3G peptide, dose response retest (AID 1117319) | hit rate 0.57% among 260,000 | TR-FRET GST-Vif / biotin-A3G peptide binding; higher % means a stronger effect; test concentration not given here; strong numbers were not always called active | one-dose inhibition, %; IC50 in µM for titrated hits;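 active = above the screen mean plus three standard deviations and confirmed in dose response; inconclusive = results disagree or hit not tested in dose response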;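 note: Vif residues 1-94 fused to GST binding biotinylated APOBEC3G peptide 110-148; 0% = full assay without inhibitor and 100% = GST in place of GST-Vif; retest series ran down from 100 µM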
# HNF4A DNA FP = change in binding of human HNF4A to DNA, primary screen, biochemical, fluorescence polarization, FITC-DNA; Hepatocyte nuclear factor 4-alpha (Homo sapiens), P41235; hit rate 0.3% among 360,000; 1 h; activity change, % at 10 µM; in the data active = activity change above about 30%, passing the limit was not always enough;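 note: controls were the assay level and a saturating level of protein; the project sought stronger binding though the title names inhibitors; some compounds called inactive have numbers as strong as hits; positive values seem to mean higher polarization but the record does not say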
# FGF22 binding = binders of human FGF22 protein, primary screen, FGF22 synaptogenesis inhibitor project, biophysical, thermal shift, single point | hit rate 1.5% among 340,000 | recombinant FGF22 thermal shift, SYPRO orange fluorescence; percent of sucrose octasulfate shift, DMSO zero | AID 651658, 2012 | Fibroblast growth factor 22 (Homo sapiens), Q9HCT0 | calls only at 9.99 µM;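 active = melting point raised past a set limit in the mean and every replicate; inconclusive = no clear call; three in four hits are not shown here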
# Target sequence (Q9HCT0 whole entry, looked up): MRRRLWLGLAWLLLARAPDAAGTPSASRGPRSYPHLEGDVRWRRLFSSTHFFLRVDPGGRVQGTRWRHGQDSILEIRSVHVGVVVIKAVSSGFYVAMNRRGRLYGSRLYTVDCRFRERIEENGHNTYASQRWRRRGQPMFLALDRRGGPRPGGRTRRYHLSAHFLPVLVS
# E coli growth = E. coli growth inhibition, primary screen, OD600. Escherichia coli growth, 23 h; stronger effect = lower value. hit rate 0.21% among 330,000. OD600 absorbance (concentration not given with the values);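 active = OD600 absorbance below the run mean of sample wells minus 3.6 SD, in any replicate, cut at about 0.56 in these data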;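 note: stock transfer was 300 nL into about 60 µL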
# Ecoli rRNA inh = reduced GFP signal of wild-type E. coli, primary screen, bacterial rRNA inhibitor project, GFP/RFP fluorescence, OD600, single point; E. coli WT GFP vs humanized-ribosome RFP mutants, 24 h; stronger effect = lower value; DMSO median 0, no signal -100; GFP signal change (wild-type ribosome), % (no concentration beside the values); hit rate 1.6% among 350,000;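 active = significant combined selectivity score with lowered wild-type GFP, culture density cut under 30%, mutant RFP and density less affected; inactive = any of these conditions unmet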; note: one replicate is shown; some compounds called inactive have numbers as strong as hits
# Ecoli rRNA inh OD600 = recorded beside Ecoli rRNA inh, whose call it bears; OD600 change, %; measured here: OD600 growth;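 optical density of the mix in the first replicate; 0 = DMSO median and -100 = no signal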
# Ecoli rRNA inh RFP = recorded beside Ecoli rRNA inh, whose call it bears; RFP signal change, %; measured here: RFP humanized mutant strains;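 first replicate; 0 = DMSO median and -100 = no signal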
# Active calls of the source: *; i = inactive; ? = inconclusive; · = no result given. These rows are one share of the data; rates above refer to the full screens.
SMILES	ALR H2O2 inh	MLL AF4-AF9 inh	Vif TR-FRET	HNF4A DNA FP	FGF22 binding	E coli growth	Ecoli rRNA inh	Ecoli rRNA inh OD600	Ecoli rRNA inh RFP
C=CC[N@@+]12CC[C@]34c5ccccc5N5/C=C6\C7N(/C=C(\C53)[C@@H](C[C@@H]41)/C(=C/CO)C2)c1ccccc1[C@@]71CC[N@@+]2(CC=C)C/C(=C\CO)[C@@H]6C[C@@H]12 (stereo partly drawn)	-23.8	10.0	·	-3.0	i	·	-9.4	-7.3	9.9
O=C(Cc1ccccc1)N1C[C@H]2[C@@H](c3ccccc31)[C@@H](CO)N2C(=O)Cc1ccccc1	·	-0.1	·	·	i	·	-0.5	-2.1	1.8
CCOC(=O)c1ccc(N(CC(=O)NC2CCCCC2)C(=O)CNC(=O)c2ccco2)cc1	0.0	0.8	·	1.0	i	0.694	2.5	0.4	0.2
COc1ccccc1NC(=O)C1CCCN1S(=O)(=O)c1cccc2nsnc12 (stereo not drawn)	-1.0	·	·	-5.5	·	0.684	·	·	·
CCNC(=O)[C@@H]1[C@@H](CO)[C@@H]2Cn3c(ccc(-c4ccccc4F)c3=O)[C@@H]2N1CC1CC1	·	-30.2	·	·	i	·	-2.5	-0.2	-0.4
NC(=S)NN=Cc1nccc2c(C(F)(F)C(F)(F)C(F)(F)F)cccc12	·	-0.8	-1.6%	4.7	i	·	-3.5	3.7	3.0
CN(Cc1cccs1)C(=O)Cn1cnc2cc([N+](=O)[O-])ccc2c1=O	-42.5	0.0	5.1%	-0.4	i	0.649	12.4	12.4	-0.2
NC(=O)CC(NC(=O)c1ccccc1)c1ccc(NC2CCCC2)c([N+](=O)[O-])c1 (stereo not drawn)	5.0	0.2	3.8%	6.2	i	0.642	14.7	8.3	-0.4
CCS(=O)(=O)N1CCC(C(=O)Oc2ccc(C)c(C)c2)CC1	-10.7	-1.5	·	5.9	i	0.681	13.4	7.7	4.5
Cc1c(-n2cc(C(=O)O)c(=O)c3cc(F)c(N4CCCC4)c(F)c32)c(=O)n(-c2ccccc2)n1C	-3.8	·	·	2.0	·	0.693	·	·	·
Cn1nc(C(=O)Nc2ccc3c(c2)OCCO3)c2ccccc2c1=O	·	5.6	·	-0.9	i	0.681	4.9	-18.6	-7.3
NC(=O)CC(NC(=O)c1cccc(Br)c1)c1ccc(N2CCCCCC2)c([N+](=O)[O-])c1 (stereo not drawn)	-8.5	4.2	·	-0.4	i	0.657	7.1	-2.6	4.4
O=C(CCCn1c(=O)c2cccn2c2cccnc21)NCCc1ccc(Cl)cc1	2.7	-0.4	?	3.1	i	0.709	7.5	19.5	-1.1
CCOC(=O)C(=N/O)/C(C)=N/NC(=O)C(=O)Nc1cc(Cl)ccc1Cl	-0.3	-0.8	-2.3%	0.3	i	·	·	·	·
CC(C)(C)OC(=O)N/N=C/c1cccc([N+](=O)[O-])c1	-2.0	0.5	1.1%	0.4	i	·	5.3	-1.2	6.8
Cc1ccsc1/C=N/n1c(-c2ccco2)n[nH]c1=S	-0.7	·	2.1%	-2.2	·	·	·	·	·
Cc1c(Br)c([N+](=O)[O-])nn1CCCC(=O)Nc1c(C)n(C)n(-c2ccccc2)c1=O	-4.2	1.0	-6.3%	-3.4	i	0.67	8.0	5.5	-4.0
COc1cccc(C(C[N+](=O)[O-])c2c(C)[nH]n(-c3ccccc3)c2=O)c1 (stereo not drawn)	-27.2	-2.8	·	-0.8	i	·	7.2	-0.7	-2.3
COc1ccc(CCNC(=O)c2ccc(NS(=O)(=O)c3ccc4[nH]c(=O)[nH]c4c3)cc2)cc1OC	-2.9	-1.8	9.6%	2.0	i	0.667	10.5	10.5	1.7
CCOC(=O)COc1c(OC)cc(Cl)cc1C1NC(=O)NC(C)=C1C(C)=O (stereo not drawn)	-2.1	·	3.7%	0.5	·	0.728	·	·	·
COc1ccc(N=c2oc3cc(O)ccc3cc2C(=O)Nc2ccccn2)cc1OC	-13.6	-0.5	17.9%	1.9	i	0.682	20.0	19.4	5.7
COC(=O)C1CCCN1C(=O)C1CCCN1C(=O)CNC(=O)OCc1ccccc1 (stereo not drawn)	-1.0	·	1.0%	1.6	·	0.72	·	·	·
O=C(Nc1nncs1)c1cc(-c2ccncc2)nc2ccc(Cl)cc12	-6.4	1.6	-8.5%	-2.4	i	0.685	10.9	11.9	1.5
O=C(c1cc(C2CC2)on1)N1CCCC(N2CCN(c3ccc(F)cc3)CC2)C1 (stereo not drawn)	43.0	5.1	·	1.2	i	0.694	-0.8	-2.6	-0.6
COc1ccc(C(C(=O)NC2CCCC2)N2CCc3ccccc32)cc1 (stereo not drawn)	-4.2	-0.3	-7.5%	0.7	i	0.749	-2.7	-4.5	30.1
O=C(CSCc1cccs1)N1CCCC1	-4.3	·	-0.7%	2.1	·	0.692	·	·	·
COc1cc2c(cc1NC(=S)NC(=O)c1c(OC)cccc1OC)oc1ccccc12	-2.3	-0.4	·	0.1	i	0.752	9.1	15.9	-3.6
C[C@H]1CN([C@@H](C)CO)C(=O)Cc2cc(NC(=O)Nc3ccc(F)cc3)ccc2O[C@H]1CN(C)C	·	-0.5	·	·	i	·	2.1	-1.2	-4.5
C[C@H](NC(=O)c1nc[nH]c1C(=O)N1CCc2ccccc2C1)C(=O)OCc1ccccc1	-1.2	0.2	-4.0%	4.5	i	·	-23.8	-7.3	16.6
Cc1ccc(NC(=O)N2CCN(C(=O)C3CCCO3)CC2)cc1 (stereo not drawn)	-3.2	0.6	·	-3.1	i	0.684	7.3	11.4	-1.3
CCC1=NN(C(=O)Cc2ccc([N+](=O)[O-])cc2)C(O)(C(C)(C)C)C1 (stereo not drawn)	11.1	1.8	2.2%	0.2	i	0.733	6.3	8.0	1.0
COc1ccc(S(=O)(=O)N(C)C[C@@H]2Oc3c(cccc3N(C)C)C(=O)N([C@@H](C)CO)C[C@H]2C)cc1	·	-5.1	·	·	i	·	-5.5	-13.2	-0.8
Cc1cccc(OCc2ccc(C(=O)N3CCOCC3)o2)c1	·	-1.9	·	-0.8	i	0.657	-0.3	2.4	-1.7
CC(C)C[C@@H](NC(=O)C1CCC(CNC(=O)[C@@H]2CCCN2C(=O)OC(C)(C)C)CC1)C(=O)O (stereo partly drawn)	-30.4	-8.9	4.0%	-1.0	i	0.647	20.6	23.2	4.1
CC1(C)Cc2c(sc3nc(SCC(=O)NCc4ccco4)n(-c4ccccc4)c(=O)c23)CS1	-6.5	·	-0.1%	-1.1	·	0.762	·	·	·
CC(C)=N/N=C(\c1cccc([N+](=O)[O-])c1)C12CN3CN(CN(C3)C1)C2	-6.0	·	3.4%	2.7	·	·	·	·	·
COC(=O)c1cc(S(=O)(=O)NCc2ccc(Br)cc2)c[nH]1	-9.0	1.7	·	-0.3	i	0.707	-0.7	0.4	2.3
COc1ccccc1C1CCN(c2ccc(CO)cc2[N+](=O)[O-])CC1	-3.4	-2.6	3.2%	2.2	i	0.67	-12.4	-0.6	0.9
COc1ccccc1NC(=O)CN1CCN(c2ccccc2OC)CC1	11.3	1.5	·	-1.3	·	0.702	-15.2	-19.2	-3.1
O=C([C@@H]1[C@@H](CO)[C@@H]2Cn3c(cccc3=O)[C@@H]2N1C(=O)CC1CC1)N1CCCCC1	·	-0.8	·	·	i	·	2.5	5.8	0.2
COc1ccc(S(=O)(=O)N(C)C[C@@H]2Oc3ccc(N(C)C)cc3C(=O)N([C@@H](C)CO)C[C@@H]2C)cc1	·	0.8	·	·	i	·	-3.5	-6.5	-0.7
C=C(CN(C)C)C(=O)c1ccc(OC2OC(COC(C)=O)C(OC(C)=O)C(OC(C)=O)C2OC(C)=O)cc1 (stereo not drawn)	·	-3.8	14.2%	-0.3	i	·	·	·	·
COc1ccc(C)cc1NC(=O)C(Sc1nnnn1C)c1ccccc1 (stereo not drawn)	1.5	0.6	-1.9%	0.1	i	0.729	-7.5	1.3	2.4
COC(C[C@H]1O[C@@H]1[C@@H](O)COCc1ccccc1)OC	·	-1.4	79.1%	-0.1	i	·	17.6	14.6	12.8
C[C@@H]1CN([C@H](C)CO)C(=O)c2cc(-c3ccc(C#N)cc3)cnc2O[C@H]1CN(C)C(=O)Nc1ccccc1	·	0.5	·	·	i	·	-5.8	-6.8	-2.2
CCCCc1nc(Cl)c(CO)n1Cc1ccc(-c2ccccc2-c2nn[nH]n2)cc1	2.1	7.4	·	-1.9	i	0.687	·	·	·
COC(=O)C1=C(C)N(Cc2cccc(C(F)(F)F)c2)C(=NCc2cc(OC)c(OC)c(OC)c2)NC1c1ccc(Cl)cc1 (stereo not drawn)	·	10.9	·	·	·	·	-50.5	-77.8	-16.1
CN1CCN(C(=O)CCCN2C(=O)/C(=C/c3ccccc3)SC2=S)CC1	3.5	17.6	·	0.0	i	0.711	-3.8	4.6	6.0
CN(CC(=O)Nc1ccccc1Br)C(=O)c1ccncc1	-10.9	2.8	-1.0%	0.3	i	0.709	14.7	14.3	0.3
COc1cc2c(c(OC)c1OC)-c1ccc(N(C)CC(OC)OC)c(=O)cc1[C@@H](NC(C)=O)CC2	-19.0	1.2	·	2.8	i	0.634	14.6	21.4	-1.2
COc1ccc(C(=O)OCc2cc(=O)n3c(C)csc3n2)cc1F	2.9	0.0	·	-4.1	i	0.715	13.4	14.7	-1.6
Cc1ccc(S(=O)(=O)Nc2ccc3c(c2)C(=O)N([C@@H](C)CO)C[C@H](C)[C@H](CN(C)S(=O)(=O)c2cccs2)O3)cc1	·	0.1	·	·	i	·	-0.1	-7.4	3.9
CCOC(=O)N1CCC(NC(=O)CSCc2cnn(-c3ccccc3)c2-n2cccc2)CC1	-0.7	·	?	-0.2	·	0.751	·	·	·
C[C@H](CO)N1C[C@H](C)[C@@H](CN(C)S(=O)(=O)c2ccc(F)cc2)Oc2ccc(NC(=O)CCCN(C)C)cc2CC1=O	·	0.2	·	·	i	·	4.6	5.2	0.1
CCOc1ccc(N2C(=O)c3cccnc3C2Nc2ccc(C)cc2)cc1 (stereo not drawn)	0.5	·	3.8%	2.4	·	0.689	·	·	·

# Sorted by the number under Ecoli rRNA inh OD600 (smallest number first): some entries from above.
SMILES | ALR H2O2 inh | MLL AF4-AF9 inh | Vif TR-FRET | Ecoli rRNA inh | Ecoli rRNA inh OD600 | Ecoli rRNA inh RFP
COc1ccccc1NC(=O)CN1CCN(c2ccccc2OC)CC1 | 11.3 | 1.5 | · | -15.2 | -19.2 | -3.1
CN1CCN(C(=O)CCCN2C(=O)/C(=C/c3ccccc3)SC2=S)CC1 | 3.5 | 17.6 | · | -3.8 | 4.6 | 6.0
CCC1=NN(C(=O)Cc2ccc([N+](=O)[O-])cc2)C(O)(C(C)(C)C)C1 (stereo not drawn) | 11.1 | 1.8 | 2.2% | 6.3 | 8.0 | 1.0

# From PubChem
